VDR inhibitor = vitamin D3 receptor (human) inhibition; P11473; VDR-SRC2-3 peptide fluorescence polarization, 2 h; Potency, µM, without a hit: max response, negative = inhibition, most hits filed as inhibitors; 400,000 compounds, 0.93% hits; active = well fitted inhibition curve with a large enough effect; inconclusive = small, poorly fitted or top-dose-only effect, or another doubt; inactive = no such curve, though single readings can be large or run the other way; note: series mostly up to about 120 µM
Target sequence (P11473 whole entry, looked up): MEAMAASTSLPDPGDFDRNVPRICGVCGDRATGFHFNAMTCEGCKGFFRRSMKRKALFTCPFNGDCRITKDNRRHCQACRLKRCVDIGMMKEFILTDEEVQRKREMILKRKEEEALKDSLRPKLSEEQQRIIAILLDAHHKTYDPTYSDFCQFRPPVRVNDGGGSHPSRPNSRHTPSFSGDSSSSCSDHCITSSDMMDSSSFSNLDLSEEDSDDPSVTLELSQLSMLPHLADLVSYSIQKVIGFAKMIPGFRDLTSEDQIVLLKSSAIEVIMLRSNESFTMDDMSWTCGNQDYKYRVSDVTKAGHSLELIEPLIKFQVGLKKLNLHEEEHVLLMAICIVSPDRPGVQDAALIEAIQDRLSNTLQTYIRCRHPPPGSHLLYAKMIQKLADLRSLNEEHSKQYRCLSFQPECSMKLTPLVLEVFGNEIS
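Inhibition of the VDR/SRC2-3 peptide interaction is quantified by fluorescence polarization. Compounds (23 nl, pintool) incubate with the reagents for 2 hours at ambient room temperature.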
Numbers without * were called inactive; ? = inconclusive; & = joins results of further samples; [ ] = another dose, or the depositor's remark. % is set by controls: 0 for no effect and ±100 for the full control effect; potency is the fitted concentration of half-maximal effect. Only part of the results is shown; count on the stated rates, not on these rows.

SMILES | VDR inhibitor
CN(C)C(=O)c1ccc(-c2nc(N(C)Cc3ccco3)c3ccccc3n2)cc1 | ?
Cc1nc(NC(=O)C2CC2)sc1C(=O)Nc1cccc(Cl)c1 | -5.2%
COc1ccc(CCNC(=O)c2cc3c(-c4ccc(OC)c(OC)c4)nn(C)c3s2)cc1OC | -9.2%
CCCCN(C(=O)c1cc(-c2ccco2)nc2ccccc12)c1c(N)n(CCCC)c(=O)[nH]c1=O | -19.6%
CCN1c2ccccc2-c2nc(SCC(=O)NCc3ccc(C)cc3)ncc2S1(=O)=O | 2.7%
CC(=O)N1/C(=C/c2ccc(N(C)C)cc2)C(=O)c2ccccc21 | 31.6µM*
Cc1ccc2c(c1)N(C(=O)CCC(=O)NCCCN1CCN(C)CC1)CCO2 | 0.2%
CCOCCCNC(=O)Nc1cc(C(=O)NCc2ccc(C(C)C)cc2)ccc1N1CCCC1 | -4.1%
COc1ccc(NC(=O)N2CCCC2C(=O)Nc2ccc(C)cc2C)cc1 (stereo not given) | 3.2%
CC1(C)C(=O)C2(C(=O)NCc3ccccc3)CCC1C2 (stereo not given) | 15.8%
N=c1nc(N)nc2n1NC(c1ccc(F)cc1)=CS2 | 4.0%
COc1cc(-c2ccno2)ccc1S(=O)(=O)N1CCN(c2cccc(Cl)c2)CC1 | 7.2%
O=C(CSc1nc2ncc(Br)cc2[nH]1)Nc1ccccc1-c1ccccc1 | -14.2%
O=C(CCS(=O)(=O)Cc1ccc(Cl)cc1)NCCCN1CCN(c2ccccc2F)CC1 | -3.3%
Cc1ccc(N(C)S(=O)(=O)c2ccc3[nH]c4c(c3c2)CCCC4)cc1 | 15.4%
O=C(COc1ccccc1Cl)N1CCc2ccccc21 | -9.4%
COC(=O)c1ccc(NS(=O)(=O)c2ccc(S(=O)(=O)N3CCOCC3)cc2)cc1 | 15.9%
Cc1cc(NC(=O)CN2C(=O)S/C(=C\c3ccccc3)C2=O)no1 | -7.6%
C=CCOC(=O)C1=C(C)NC(SCC(N)=O)=C(C#N)C1c1cccs1 (stereo not given) | 23.0%
CCOC(=O)c1cc2n(n1)C(C(F)(F)C(F)(F)F)CC(C)N2 (stereo not given) | 22.6%

Molecules listed so far containing a furan ring, fused or not:
SMILES | VDR inhibitor
CN(C)C(=O)c1ccc(-c2nc(N(C)Cc3ccco3)c3ccccc3n2)cc1 | ?
CCCCN(C(=O)c1cc(-c2ccco2)nc2ccccc12)c1c(N)n(CCCC)c(=O)[nH]c1=O | -19.6%

In another format: entries from further up
compound	VDR inhibitor
CCCCN(C(=O)c1cc(-c2ccco2)nc2ccccc12)c1c(N)n(CCCC)c(=O)[nH]c1=O	-19.6%
CCN1c2ccccc2-c2nc(SCC(=O)NCc3ccc(C)cc3)ncc2S1(=O)=O	2.7%

Later entries:
SMILES | VDR inhibitor
Cc1ccc(NC(=O)CSCC(=O)NCCc2ccccc2)cc1 | 12.8%
O=C1ON=C(c2cccc([N+](=O)[O-])c2)/C1=C/c1ccc(O)cc1 | ?
CCCN(CCC)C(=O)Cn1c(=O)n(-c2ccc(OC)cc2OC)c(=O)c2c3c(sc21)CCC3 | -15.1%
CCOC(=O)c1ccc(NC(=O)CCS(=O)(=O)c2ccc(C)cc2)cc1 | 8.2%
COC(=O)c1ccccc1NC(=O)CCCN1C(=O)C(c2ccccc2)Oc2cccnc21 (stereo not given) | 5.7%&-2.5%
COc1cc(C2C(C(=O)OCCC#N)=C(C)NC3=C2S(=O)(=O)c2ccccc23)cc(OC)c1OC (stereo not given) | -1.7%
CN(C)/C=N/C(=S)Nc1ccccc1F | 9.1%
COCCNC(=O)NC(=O)CN1CCN(C(c2ccccc2)c2ccccc2)CC1 | -4.9%
C=CCn1c(=O)c2c(nc3n2CCCN3Cc2ccccc2)n(C)c1=O | 6.6%
COC(=O)c1ccc2c(c1)N(Cc1cc(C)ccc1C)C(=O)c1ccccc1S2 | 3.3%
Cc1[nH]c2ccccc2c1C(=O)C(=O)NCCCc1ccccc1 | -12.9%
c1ccc(-c2cc(-c3nnc4sc(-c5ccccn5)nn34)[nH]n2)cc1 | -2.7%
CON(C)c1nc(OCCNC(=O)OCc2ccc(Cl)cc2C)nc(N(C)C)n1 | -7.9%
O=C(NCc1ccccc1)c1cc(-c2cccs2)on1 | -8.8%
O=C(CNCCc1ccc(F)cc1)Nc1cc(F)ccc1F | 15.7%
Oc1ccc(Cc2ccccc2Cl)c(O)c1 | 7.3%
Cc1cc(/C=C(/C#N)C(=O)O)c(C)n1CCC(C)C | -8.1%
COc1ccccc1N1CCN(C(=O)CSc2nc(C)c(Cc3ccccc3)c(=O)[nH]2)CC1 | 2.3%
Cc1nc2ccccn2c1-c1nnco1 | -1.5%
COc1ccccc1NC(=O)CSc1oc(-c2cccs2)nc1S(=O)(=O)c1ccc(Br)cc1 | -10.1%
Cc1cc(C)c(C#N)c(SC(F)F)n1 | 10.2%
Cc1cc(C)n(-c2nc3ccccc3c(=O)n2OCC(N)=O)n1 | 1.0%
Cc1ccc(-n2c(SCC(=O)Nc3ncc(Cl)cc3Cl)nc3ccccc32)cc1 | -2.4%
O=C(NCc1cccnc1)c1cn(-c2ccccc2)nc1-c1ccccc1 | -12.5%
CCOc1ccc(N2CC(C(=O)Nc3ccncc3)CC2=O)cc1 (stereo not given) | -8.2%
COc1cccc(C(=O)CC(C#N)c2ccc(F)cc2)c1 (stereo not given) | 9.3%
COC(=O)c1ccccc1NC(=O)NC1CCCCC1 | 15.8%
Cc1cc(C)cc(OC(C)C(=O)NCCCn2ccnc2)c1 (stereo not given) | -5.4%
Cc1ccc(N(C)S(=O)(=O)c2cccc(C(=O)NC3=NCCS3)c2)cc1 | 4.1%
CCCc1[nH]nc2c1C1(CCN(C(=O)OCc3ccccc3)CC1)C(C#N)=C(N)O2 | 8.3%
CN1CCc2c(OCC(=O)N3CCC(Cc4ccccc4)CC3)cccc2C1=O | -13.0%
COc1ccc(N2CCN(S(=O)(=O)c3ccc4c(c3)CC(C)N4C(C)=O)CC2)cc1 (stereo not given) | 1.4%
COC(=O)C(C(=O)Nc1nc2ccccc2s1)C1CCCC1 (stereo not given) | -7.4%
Cc1sc2nc(CSC(C)C(=O)Nc3ccc(Cl)cn3)[nH]c(=O)c2c1C (stereo not given) | -11.8%
Cc1ccn(S(=O)(=O)c2ccc(N3CCCC3=O)cc2)n1 | -0.3%
COc1ccc(-c2nc3ccccc3n2CCC(C)C)cc1OC | -5.3%
O=C(OCCN1C(=O)c2ccccc2C1=O)c1cc(=O)[nH]c2ccccc12 | 2.2%
CCOc1ccccc1N1CCN(C(=O)c2cc3c(s2)CCC3)CC1 | 2.5%
CCCCn1c(N)c(N(CC(C)C)C(=O)CSCC(=O)Nc2ccc(OC)cc2)c(=O)[nH]c1=O | -3.9%
O=C(Nc1nc(-c2ccccc2)cs1)c1ccc2c(c1)S(=O)(=O)c1ccccc1C2=O | -15.0%

Taken from above for reference:
SMILES | VDR inhibitor
Cc1cc(C)c(C#N)c(SC(F)F)n1 | 10.2%
Cc1cc(C)n(-c2nc3ccccc3c(=O)n2OCC(N)=O)n1 | 1.0%
Cc1ccc(-n2c(SCC(=O)Nc3ncc(Cl)cc3Cl)nc3ccccc32)cc1 | -2.4%

Other structures
SMILES | VDR inhibitor
COc1ccc(NC(=O)CNC(=O)CC23CC4CC(CC(C4)C2)C3)c(OC)c1 | 1.4%
Cc1ccc(C(=O)Nc2ccccc2Oc2ccccc2)o1 | 7.2%
Cc1ccc(NC(=O)N2CCCC2C(=O)NCc2ccc(Cl)cc2)cc1 (stereo not given) | -12.0%
CCc1ccccc1NS(=O)(=O)c1ccc2[nH]cc(C(=O)NC3CCCC3)c(=O)c2c1 | -4.9%&-21.3%
Cc1oc(-c2ccc(Cl)cc2)nc1CS(=O)CC(=O)NCCCN1CCOCC1 (stereo not given) | 7.7%
COc1cc(NS(=O)(=O)c2ccc(Br)s2)cc(OC)c1 | 103.2%[activator]
CCOC(=O)c1[nH]cnc1C(=O)N1CCC(C)CC1 | 6.1%
COC(=O)CCC(=O)N1CCCC(C(=O)c2ccc(Cl)cc2C)C1 (stereo not given) | -10.5%
CCC(c1nnnn1CCOC)N(Cc1cc2cc(C)c(C)cc2[nH]c1=O)CC1CCCO1 (stereo not given) | -17.3%
O=C(CNc1ccccc1)Nc1cccc2ccccc12 | 1.7%
COc1nc(C)nc2c1sc1nc3c(cc12)COC(C)(C)C3 | -22.6%
CC(CCc1ccccc1)NC(=O)C1CCN(S(=O)(=O)c2ccc(F)cc2)CC1 (stereo not given) | -3.5%
O=C(Nc1ccccc1)N(Cc1ccccc1)CC(O)C(F)(F)F (stereo not given) | 5.4%
CCn1cc(C(=O)N[C@H](C(=O)NCCN2CCOCC2)C(C)C)c(=O)c2cc3c(cc21)OCO3 | 4.2%
CCOC(=O)CN1CCS(=O)(=O)CC1 | 16.2%
Cc1ccc(S(=O)(=O)CCC(=O)NC2CCCCC2)cc1 | 1.9%
O=C(NCCCN1CCOCC1)c1cccnc1 | 16.8%
O=C(NNC(=O)c1cccc2ccccc12)c1ccc(Cl)cc1Cl | 0.1%
COc1ccc(-c2ccc(SC)nn2)cc1 | -0.1%
Cc1ccc(OCC(=O)NNC(=O)C(=O)N2CCCC2)c(C)c1 | -8.3%

Retrieved one by one from the entries so far, 2 records:
SMILES | VDR inhibitor
CCc1ccccc1NS(=O)(=O)c1ccc2[nH]cc(C(=O)NC3CCCC3)c(=O)c2c1 | -4.9%&-21.3%
Cc1oc(-c2ccc(Cl)cc2)nc1CS(=O)CC(=O)NCCCN1CCOCC1 (stereo not given) | 7.7%

Going on with the list:
SMILES | VDR inhibitor
Cc1nc2ccccc2c2oc(C(=O)NCCCN3CCCC(C)C3)cc12 (stereo not given) | -1.9%
CCn1c(CNc2ccc(C)cc2C)nnc1SCC(=O)N1CCCc2ccccc21 | 15.1%
CCN1CCN(c2ccc(S(=O)(=O)N3CCCCC3)cc2NC(=O)Cc2ccccc2)CC1 | 12.8%
Cc1ccc(S(=O)(=O)N2CC(C(=O)O)=CC[C@H]2c2ccc3c(c2)OCO3)cc1 | -15.6%
COc1ccc(/C=N\NC(=O)CC(=O)Nc2cccc(Cl)c2)cc1OC | 1.9%
CCCc1nnc2c(N(C)S(=O)(=O)c3ccccc3)nc3ccccc3n12 | 1.8%
Cc1ccc(-c2nnc(-n3ncc(C#N)c3N)c3ccccc23)cc1C | -13.3%
Cc1cccc2cc(COC(=O)c3ccccc3)c(=O)[nH]c12 | -0.4%
CCCCCc1c(C)nc(N2CCOCC2)[nH]c1=O | 2.0%
Cc1cccc(CNc2ncnc3ccc(-c4ccccc4C#N)cc23)c1 | 1.7%
O=S(=O)(c1ccc(Cl)cc1)c1cnc(-c2cccnc2)nc1-c1ccccc1 | -2.8%
Cc1ccc(C(=O)N2CCCC(Nc3ccc(F)c(F)c3)C2)cn1 (stereo not given) | -2.2%
CC(=O)N(O)CCCCCNC(=O)CCC(=O)N(O)CCCCCNC(=O)CCC(=O)N(O)CCCCCN | -8.7%&-26.5%&-1.9%
CC(Sc1nc2ccccc2c(=O)n1Cc1ccco1)C(=O)c1ccccc1 (stereo not given) | 13.0%
Cc1cc(C)c2nc(SCC(=O)NCCC3=CCCCC3)cc(C)c2c1 | -12.9%
COc1ccc(C(C)=O)cc1CSc1nnc(Nc2ccc(C)cc2C)s1 | -3.3%
Cc1cc(C)nc(NS(=O)(=O)c2ccc(NC(=O)Cc3ccc(F)cc3)cc2)n1 | -13.0%
C/C(N)=C(/C#N)C(=O)CSc1nc2ccccc2c(=O)n1CCCO | -11.7%
CCc1ccc(NC(=O)c2ccc3c(O)c(S(=O)(=O)c4ccccc4)c(=O)[nH]c3c2)cc1 | -1.4%
C/C(=N\NC(=S)Nc1ccccc1C)c1ccc(O)cc1 | ?
O=C(CCCSc1nc2ccccc2[nH]1)NC1=NCCS1 | -1.2%
Cc1ccc(NC(=O)C(C)NS(=O)(=O)c2ccc(F)cc2)cc1C (stereo not given) | 24.2%
COc1cccc(C2=NNC(=NCc3ccccc3)SC2)c1 | 12.5%
CCN(c1ccc(OC)cc1)S(=O)(=O)c1ccc2[nH]c(=O)ccc2c1 | 17.5%
COCCCNC(=O)/C=C1\Sc2ccccc2N(Cc2ccccc2F)C1=O | -15.7%
Cc1ccc(NC(=O)c2sc3nc4n(c(=O)c3c2C)CCCCC4)c(Br)c1 | 6.9%
O=C1c2ccccc2C(=O)c2c1ccc1c(=O)n(-c3ccccc3)[nH]c21 | -8.1%
CCN(C(=O)COC(=O)/C=C/c1c(C)nn(Cc2ccc(C)cc2)c1C)C1CCS(=O)(=O)C1 (stereo not given) | -3.2%
COC(=O)C1=C[C@@H](C(=O)OC)[C@@H]2C3=C(C(=O)[C@@]2(CC(C)C)NC(=O)c2ccccc2)[C@H](C)n2c(=O)n(-c4ccccc4)c(=O)n2[C@@H]3C1 | -5.1%
CC(=O)CC1(O)C(=O)N(CN2CCN(c3ccccc3)CC2)c2ccccc21 (stereo not given) | -6.1%
CCN(CC)C(=O)CSc1nnc(-c2cc(OC)cc(OC)c2)o1 | 19.0%
COc1ccc(CCNC(=O)COc2ccc(S(=O)(=O)NC(C)C)cc2Cl)cc1OC | -15.4%
Cc1ccc2[nH]c(=O)c(COC(=O)C3CCCO3)cc2c1 (stereo not given) | -7.0%
Cc1nc(-c2cc(C#N)c(Sc3ccc(Cl)cc3Cl)nc2C)cs1 | 27.9%
COC(=O)C1=C(C)NC(C)=C(C(=O)OC)C1/C=C/c1ccccc1 | -1.5%
NC(=O)C1CCN(C(=O)c2cccc(S(=O)(=O)N3CCCC3)c2)CC1 | -13.4%
Nc1nc(-c2ccc(Cl)cc2)c(S(=O)(=O)c2ccccc2)s1 | -0.1%
COc1cc(C)nc(Oc2ccc(OCc3ccccc3)nn2)n1 | -5.8%
COc1ccc(S(=O)(=O)N2CCN(C(=O)c3cc(-c4ccc(Br)cc4)n[nH]3)CC2)cc1OC | -3.3%&-3.6%
Cc1cccc(-n2ncc(C(=O)N3CCC(C)CC3)c2C2CCN(C(=O)OC(C)(C)C)CC2)c1 | 3.0%
N#C/C(=C/c1ccc([N+](=O)[O-])cc1)C(=O)Nc1ccccc1O | ?
Fc1ccccc1-c1ccc(/C=N/Nc2nc3ccccc3[nH]2)o1 | -7.7%

Screening results as filed in PubChem BioAssay.
